HIV TAR-Tat: HIV-1 TAR-Tat binding disruption. HIV-1 TAR RNA, Tat peptide displacement FRET; stronger effect = higher value. z-score (concentration not given with the values). 100,000 compounds, 0.6% hits. AID 1259389;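 further: score is relative to mean and SD of negative controls; some compounds called inactive have numbers as strong as hits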
CDC25B CDK2 inh: human CDC25B-CDK2/CyclinA binding inhibition; z-score (test concentration not listed); AID 1259370; P30305+P24941; 94,000 compounds, 0.72% hits; HTRF CDC25B-CDK2/CyclinA binding, anti-His/anti-Flag; stronger effect = higher value;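 further: score is relative to mean and SD of negative controls; strong numbers were not always called active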
Numbers without * were called inactive; . = no result given.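 How the source made its calls: active means z-score from 3 up in half or more of its runs; inactive means the rest.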

SMILES	CDC25B CDK2 inh	HIV TAR-Tat
CCCSc1nc(=O)c2c(n1C)NC(=O)CC2c1ccc(C)cc1C (configuration not stated)	-1.26	1.3
C/C(=N\Nc1nc(-c2ccccc2)cc(-c2ccc(C)cc2)n1)c1ccccc1	-0.22	.
CCCc1ccc(CC2(CC(=O)OCC)C(=O)c3ccccc3C2=O)cc1	-0.49	0.91
CCC1CN(S(=O)(=O)c2ccc3c4c2CC(=O)N4CC(C)S3)c2ccccc2S1 (configuration not stated)	.	1.05
O=C(CCSc1ccc(F)cc1)Nc1nc(-c2ccccn2)cs1	.	1.47
NC(=O)c1nc(-c2ccccc2Cl)nc2c1[nH]c(=O)n2-c1ccccc1	-1.28	.
COc1ccc(OC)c(C2Nc3cc(C)c(C)cc3NC3=C2C(=O)CC(C)(C)C3)c1 (configuration not stated)	-2.06	1.97
O=C1C2ON(c3ccccc3)C(c3ccncc3)C2C(=O)N1c1ccc(N2CCOCC2)cc1 (configuration not stated)	-0.32	0.42
Cc1ccc2oc(=O)cc(CN3CCOCC3)c2c1	-0.38	.
CCCCOC(=O)C1=C(C)NC2=C(C(=O)CCC2)C1c1ccc2c(c1)OCO2 (configuration not stated)	0.41	1.04
CC1(C)C(=O)OC2(c3ccc(F)cc3)C1OC(=O)C2(C)C (configuration not stated)	-0.94	.
Cc1[nH]nc(-n2cnnc2)c1NS(=O)(=O)c1ccc(CC(C)C)cc1	-3.37	-0.01

The closing three entries of the part before are carried over, then new ones follow:
SMILES	CDC25B CDK2 inh	HIV TAR-Tat
CCCCOC(=O)C1=C(C)NC2=C(C(=O)CCC2)C1c1ccc2c(c1)OCO2 (configuration not stated)	0.41	1.04
CC1(C)C(=O)OC2(c3ccc(F)cc3)C1OC(=O)C2(C)C (configuration not stated)	-0.94	.
Cc1[nH]nc(-n2cnnc2)c1NS(=O)(=O)c1ccc(CC(C)C)cc1	-3.37	-0.01
O=c1o[nH]c(-c2ccccc2)c1N=Nc1c(F)cccc1Cl	-0.77	.
Cc1ccc(Cl)cc1N1CCN(c2c(-c3ccc(Cl)cc3)c(=O)c2=O)CC1	.	-1.66
Cc1nc2c(OCc3ccccc3)cccn2c1CC#N	0.08	.
Cn1c(-c2ccccc2)cnc1NCc1c(F)cccc1Cl	-1.66	-0.06
CCC(C)NC(=O)c1ccc2c(=O)[nH]c3c(C(=O)NC(C)C)sc(=S)n3c2c1 (configuration not stated)	.	1.27
CN1CCc2nc3sc(C(=O)c4ccc(Cl)cc4)c(N)c3cc2C1	19.1*	-6.55
CN(c1nnc(NC(=O)NCc2ccc(F)cc2)s1)C1CCCCC1	-1.24	0.98
Cc1nc2sccn2c(=O)c1S(=O)(=O)Nc1ccc(N2CCC(C)CC2)cc1	-2.14	1.69
O=c1c(S(=O)(=O)c2cc(F)cc(F)c2)c[nH]c2ccc(Cl)cc12	-4.45	2.23
COc1cccc(-c2[nH]nc3nc(-c4ccc(O)cc4)cc(C(=O)O)c23)c1	-0.98	0.09
COC(=O)c1ccc2c(c1)NC(=S)c1ccccc1S2	.	3.05
Cc1ccc(Nc2c(-c3ccc(O)cc3)nc3ncccn23)c(C)c1	-1.98	-0.45

Continuation.
SMILES	CDC25B CDK2 inh	HIV TAR-Tat
CC1CCC(Nc2c(-c3cccc(Br)c3)nc3c(C#N)c[nH]n23)CC1 (configuration not stated)	-1.58	0.7
CCCn1c(=O)oc2cc(NS(=O)(=O)c3ccc4c(c3)c(=O)n(C)c(=O)n4C)ccc21	.	2.2
CC(=O)N1N=C(c2ccccc2)OC1c1ccncc1 (configuration not stated)	.	2.3
C=CCOC(=O)C1C(c2ccc(Br)cc2)c2c([nH][nH]c2=O)CC1(C)O (configuration not stated)	-1.17	2.22
COc1ccc(C(=O)CC2(O)C(=O)N(CCc3ccccc3)c3ccccc32)cc1OC (configuration not stated)	-0.7	0.07
O=S(=O)(c1ccccc1)N1CCN(c2ncnc3sccc23)CC1	0.85	.
COc1ccccc1N1CCN(S(=O)(=O)c2ccc(-c3ccc(=O)[nH]n3)s2)CC1	.	-0.66
O=C(CCc1nnc2ccc(NCc3ccc(F)cc3)nn12)N1CCCC1	.	2.05
CC(C)c1nn2c(=O)c(NC(=O)c3ccc(Cl)cc3)cnc2s1	-0.29	1.34
NC(=O)c1nn2c(c1Br)NC(c1ccccc1)CC2C(F)(F)F (configuration not stated)	-0.87	0.71
CCc1ccc2[nH]c(C)c(CN3CCN(C)CC3)c(=O)c2c1	0.8	0.12
Cc1cc(C)c(-c2c(Nc3ccc(C)c(F)c3)c(=O)c2=O)cc1C	.	-0.45

Following part.
SMILES	CDC25B CDK2 inh	HIV TAR-Tat
CN(C)CCCNc1ncnc2c1cnn2-c1cccc(Cl)c1	.	1.6
CC1=CC(C)C(CN(C2CCCCC2)S(=O)(=O)c2ccc(N)cc2)C(C)C1 (configuration not stated)	-0.38	1.22
Cc1noc2ncnc(NCCCN(C)Cc3ccccc3)c12	.	-0.49
O=C(CSc1ccc(-c2ccccn2)nn1)Nc1ccc2c(c1)OCCO2	.	1.47
COc1ccccc1CNC(=O)c1cc2c(=O)n(C)c3cc(Cl)ccc3c2s1	-0.69	.
O=C(Nc1ccccc1C(=O)NCCCn1ccnc1)c1ccc([N+](=O)[O-])o1	-1.9	.
CCOc1ccc2nc(NC(=O)c3csc4c3CCC(C)C4)sc2c1 (configuration not stated)	-0.85	-0.34
Cc1cc2nc(COc3ccccc3C)[nH]c2cc1C	-0.97	0.29
CCOc1ccc(-c2noc(-c3nnn(-c4ccc(F)c(Cl)c4)c3N)n2)cc1	.	0
CNC(=O)NC(=O)CSc1n[nH]c(-c2ccncc2)n1	-0.72	.
COc1ccc(C2CC(=O)C3=C(C2)Nc2ccccc2NC3c2ccc(Br)s2)cc1 (configuration not stated)	-0.65	.
CN1CCN(c2cc(NCCCC(=O)O)c3c4c(onc24)-c2ccccc2C3=O)CC1	0.14	1.94

Nothing new here: an excerpt of the list.
SMILES	CDC25B CDK2 inh	HIV TAR-Tat
CCOc1ccc2nc(NC(=O)c3csc4c3CCC(C)C4)sc2c1 (configuration not stated)	-0.85	-0.34
Cc1cc2nc(COc3ccccc3C)[nH]c2cc1C	-0.97	0.29
CCOc1ccc(-c2noc(-c3nnn(-c4ccc(F)c(Cl)c4)c3N)n2)cc1	.	0
CNC(=O)NC(=O)CSc1n[nH]c(-c2ccncc2)n1	-0.72	.
COc1ccc(C2CC(=O)C3=C(C2)Nc2ccccc2NC3c2ccc(Br)s2)cc1 (configuration not stated)	-0.65	.
CN1CCN(c2cc(NCCCC(=O)O)c3c4c(onc24)-c2ccccc2C3=O)CC1	0.14	1.94

Going on with the list:
SMILES	CDC25B CDK2 inh	HIV TAR-Tat
Cc1cc(Nc2ccc(N3CCN(C(=O)c4ccco4)CC3)cc2)n2ncnc2n1	-0.01	0.96
CCn1c(C(=O)N2CCC(C(=O)NC3CCCC3)CC2)cc2sccc21	-2.29	-1.34
COc1nc(-c2ccc(Cl)cc2)ccc1-c1noc(-c2cccs2)n1	-1.14	-5.42
Cc1cccn2c(=O)c3cc(C#N)c(=O)n(-c4c(C)n(C)n(-c5ccccc5)c4=O)c3nc12	1.08	1.46
CC(=O)N1CCC(C(=O)NCc2c(-c3ccccc3)noc2C)CC1	-0.35	.
O=C(NCc1csc(-c2ccccc2)n1)[C@H]1CSCN1C(=O)Cc1cccs1	.	0.83
CCCc1nn2c(=O)cc(COc3ccc(CC)cc3)nc2s1	-2.24	1.23
CCc1nn2c(=O)cc(COC(=O)C(C)C)nc2s1	.	1.22
O=C1CCc2cc(S(=O)(=O)N3CCC(C(=O)NC4CCCC4)CC3)ccc2N1	-1.96	.
COC(=O)c1ccc(C2c3c(oc4ccc(C)cc4c3=O)C(=O)N2CCCN2CCOCC2)cc1 (configuration not stated)	-1.6	0.26
CC(=O)Nc1ccc2c(c1)OCCO2	1.08	1.34
CC(CC(=O)Nc1cccc(F)c1)S(=O)(=O)c1ccc2c(c1)CCN2C(=O)C1CC1 (configuration not stated)	.	-0.89

(list continues)
SMILES	CDC25B CDK2 inh	HIV TAR-Tat
Cc1ccc(Cl)cc1Nc1ncnc2c1cnn2C	.	1.53
CCS(=O)(=O)N1CCN(CC2CC=CCC2)CC1 (configuration not stated)	0.96	0.74
Cc1ccc(C(=O)Oc2cc(-c3cccs3)cc(=O)c3c(C)oc(C)c23)cc1	-0.67	-1.96
Cc1cc(C)nc(Nc2ccccc2Br)n1	0.68	-0.13
CC1=C(c2ccc(C)c(C)c2)S(=O)(=O)N=C1N1CCC(C(=O)N2CCC(C(N)=O)CC2)CC1	.	0.6
COCCOC(=O)c1c(-c2ccccc2)c(-c2ccccc2)nn(C)c1=O	-1.66	2.01
COc1ccc(CCN2C(=O)c3ccccc3C2(O)c2ncc[nH]2)cc1OC (configuration not stated)	0.11	.
O=C(c1noc2c1CCc1sccc1-2)N1CCN(c2ccccn2)CC1	.	1.44
COCCN(CC(O)Cn1c2ccccc2c2ccccc21)S(C)(=O)=O (configuration not stated)	-0.63	.
CCN(CCN(C)C)c1nc(-c2ccc(OC)cc2)nc2ccccc12	.	1.08
COc1ccc(S(=O)(=O)N2CCCN(c3c(Cl)cncc3Cl)CC2)cc1OC	-1.92	.
CC1=C(C(N)=O)C(c2ccc(Cl)cc2)n2nnnc2N1 (configuration not stated)	2.08	-0.74

(list continues)
SMILES	CDC25B CDK2 inh	HIV TAR-Tat
CC1CCc2c(C(=O)O)csc2C1 (configuration not stated)	-0.63	1.62
CCOC(=O)CN1C(=O)C2CC=C(Cl)CC2C1=O (configuration not stated)	-0.6	-1.07
CCN(C(=O)c1ccccc1)c1cccc2ccccc12	-1.44	.
CCc1nc2c(sc3nc4c(cc32)COC(C)(C)C4)c(=O)n1CCN1CCOCC1	-0.64	.
Cc1cc(C(=O)N2CCN(C)CC2)on1	-2.01	2.36
Cc1c(C(=O)NCCC(C)C)oc2ccc(S(=O)(=O)N3CCC4(CC3)OCCO4)cc12	-0.5	.
Cn1cc(S(=O)(=O)N2CCCC2)cc1C(=O)NC1CC1	.	0.91
Fc1cc(F)cc(-c2noc3ncnc(N4CCN(c5ccccn5)CC4)c23)c1	.	1.11
Cc1ccccc1OCc1nc2c3cnn(-c4ccccc4F)c3ncn2n1	-0.61	1.64
C=CCN1C(=O)C2(C(C#N)=C(N)Oc3c2c(=O)oc2ccccc32)c2ccccc21 (configuration not stated)	-0.13	.
COCCCN1C(=O)c2[nH]nc(-c3ccccc3O)c2C1c1ccc(Br)cc1 (configuration not stated)	1.12	-1.19
O=C1C(Oc2ccccc2)C(c2ccc3c(c2)OCO3)N1CCc1ccc(F)cc1 (configuration not stated)	-0.02	0.95

Other compounds follow.
SMILES	CDC25B CDK2 inh	HIV TAR-Tat
O=C(OCCOCCN=C1NS(=O)(=O)c2ccccc21)c1ccncc1	0.78	4.12
Cc1ccc(C)c(N2CCN(S(=O)(=O)c3ccc4oc(=O)c5ncn(C)c5c4c3)CC2)c1	-1.2	3.73
COc1ccc(CCN2N=NC3C(=O)N(c4ccc(OC)c(Cl)c4)C(=O)C32)cc1 (configuration not stated)	0.79	0.5
CCOC(=O)c1cc(S(=O)(=O)Nc2ccc(OCC)cc2)[nH]n1	.	0.27
CCOCCOC(=O)C1=C(C)NC2=C(C(=O)CC(c3ccc(Cl)cc3)C2)C1c1ccc(F)cc1 (configuration not stated)	0.31	2.14
Cc1nnc2n1NC(c1ccc(Cl)cc1)C(C(=O)NCC(C)C)S2 (configuration not stated)	0.96	1.19
CC(C)Oc1ccc2c(C(F)(F)F)cc(=O)oc2c1	-1.49	.
COc1ccc(-n2nnc(-c3nc(-c4ccncc4)no3)c2N)cc1Cl	.	-1.55
Cc1cc(C)cc(-n2c(CCCC(=O)O)nc3cccnc32)c1	.	-1.46
CCCCCOC(=O)c1cc2ccccc2oc1=O	0.44	.
O=C(Nc1c(C(=O)N(Cc2ccco2)CC2CCCO2)oc2ccccc12)c1ccc(F)cc1 (configuration not stated)	.	1.11
CC(C)NC(=O)NNc1c(Cl)cncc1Cl	-2.12	.

Remaining list, next part:
SMILES	CDC25B CDK2 inh	HIV TAR-Tat
Cc1nnsc1-c1n[nH]c(=S)n1C1CC1	-1.06	.
CC1CCC(NC(=O)CCc2cn(C)c3ccccc23)CC1 (configuration not stated)	.	0.5
CCOCCOC(=O)C1=C(C)NC2=C(C(=O)CC(C)(C)C2)C1c1ccc(C)o1 (configuration not stated)	-1.59	0.36
Cc1ccc(S(=O)(=O)NNC2CS(=O)(=O)c3ccccc32)cc1 (configuration not stated)	-1.04	.
N#C/C(=C\c1cccs1)C(=O)N1CCOCC1	0.2	.
O=C(NCc1ccco1)c1ccc(CN2CC(=O)N3CCCC3C2=O)cc1 (configuration not stated)	.	3.04
CC1(C)CC(=O)C2=C(C1)OC(N)=C(C#N)C2c1ccc(Cl)cc1 (configuration not stated)	-0.48	.
CSc1cccc(NC(=O)Cn2nc(SC)c(S(=O)(=O)c3ccccc3)c2N)c1	.	-1.32
COc1cccc(OC(=O)CSc2nc(-c3ccccc3)nc3cc(=O)[nH]n23)c1	.	1.19
COc1ccc(NS(=O)(=O)c2ccc3c(c2)N(C)CCO3)cc1Cl	.	0.33
CCNc1oc(-c2ccc(COc3ccc(C)cc3)o2)nc1C#N	-1.89	-1.17
CC(C)CC(=O)Nc1nnc(S(=O)(=O)N2CCOCC2)s1	0.55	0.39
COc1ccc2cc3c(nc2c1)N(S(=O)(=O)c1cc(C)c(OC)cc1C)CC3	-1.4	0.45
Cn1c(SCc2nc(-c3ccc(Cl)cc3)no2)nnc1-c1ccccc1	-0.87	0.97
COC(=O)c1cn(-c2ccccc2)nc1N	.	1.06

Bioassay records from PubChem.

Rows were taken by chance, and some 0.87% of all compounds hit somewhere here.
